gsp antagonist = gsp mutant antagonism; 340,000 compounds, 0.4% hits; Potency, µM (top dose mostly 76.9 µM), for the others: at the highest dose activity change, negative = inhibition, most hits filed as inhibitors; gsp-mutant cells, cAMP HTRF, 30 min; control for the full effect not named in the record; active = falling curve of any shape with a large fitted effect; inconclusive = falling curve, mostly with a smaller effect; inactive = flat or rising curve; cell line not stated here;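 further: intracellular cAMP measured with PDE inhibitor Ro 20-1724 present during compound exposure; potency means the concentration at half of the fitted maximal effect; on the % scale 0 is the no-effect control and ±100 the full control effect; nearly all actives have a fitted effect of over 65% in size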
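Cells, 2000/well, grown 16–24 h in DMEM 10% FBS with 0.5 mg/ml G418, then compounds plus […] (300 uM addition stock), 30 min at 37C. cAMP read by HTRF (cAMP-d2 and anti-cAMP antibody-K in lysis buffer) after 30 min RT.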
TRPML1 agonist = agonists of human TRPML1 channel; Q9GZU1; TRPML1-expressing cells, Ca2+ dye fluorescence, FDSS; host cell line not named in the record; reference of the full effect not given here; activation, % (test concentration not listed); 410,000 compounds, 0.12% hits; in the data active = activation above about 50%; inconclusive = about 30% to 50%; inactive = below about 30%; further: 0% is about no effect; the text of the record puts the active cut at 80%
Target sequence (Q9GZU1 whole entry, looked up): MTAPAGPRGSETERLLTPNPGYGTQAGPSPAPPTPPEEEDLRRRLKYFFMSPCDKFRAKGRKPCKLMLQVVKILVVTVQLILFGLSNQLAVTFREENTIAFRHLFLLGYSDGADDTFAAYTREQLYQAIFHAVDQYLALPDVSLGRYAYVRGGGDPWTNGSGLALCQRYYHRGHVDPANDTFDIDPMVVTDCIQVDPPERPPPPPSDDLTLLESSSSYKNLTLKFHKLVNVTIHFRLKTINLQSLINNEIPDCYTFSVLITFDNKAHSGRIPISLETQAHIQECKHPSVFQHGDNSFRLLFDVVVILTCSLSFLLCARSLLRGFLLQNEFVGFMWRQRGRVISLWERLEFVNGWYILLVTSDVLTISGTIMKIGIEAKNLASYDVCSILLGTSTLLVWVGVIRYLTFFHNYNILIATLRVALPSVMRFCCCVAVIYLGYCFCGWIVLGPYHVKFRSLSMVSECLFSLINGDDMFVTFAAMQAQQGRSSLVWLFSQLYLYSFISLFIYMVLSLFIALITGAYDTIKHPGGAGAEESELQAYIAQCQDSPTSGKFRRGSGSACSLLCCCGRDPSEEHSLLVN
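Cells: TRPML1-DL, 1X Tet inducer, ~16 h at 37 degrees C/5% CO2. Dye: ABD Ca8 no-wash + quencher, 45-90 min RT. Read: 10 s baseline, compound add, 110 s agonist phase; 54-4 EC80 (4uM final), 110 s antagonist phase.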
TRPML1 blocker = human mucolipin-1 channel inhibition. Q9GZU1. TRPML1-inducible cells, Ca2+ dye fluorescence, FDSS; active compounds read low; inhibition of EC80 agonist-evoked calcium signal. activity change, negative = inhibition, % (test concentration not listed). 390,000 compounds, 0.02% hits; in the data active means activity change below about -50%; inconclusive means about -30% to -50%; inactive means above about -30%;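 further: stimulus is agonist 54-4 at its EC80 concentration; on the % scale 0 is the no-effect control and ±100 the full control effect; compound concentration not given in the record; the text of the record puts the active cut at -80%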
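Calcium fluorescence in TRPML1-DL cells induced overnight with Tet: a 110 s read after compound pin addition, then a 110 s antagonist read after challenge with 54-4 at 4 uM final (EC80).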
Menin-MLL FL inh = menin-MLL binding inhibition, fluorescein peptide; Fluorescence polarization, fluorescein-MLL peptide displacement from menin; FP activity change, % at 61.4 µM; 290,000 tested, under 10 active; AID 1766; inconclusive = falling polarisation curve, or a change in total fluorescence; inactive = total fluorescence flat and polarisation flat or rising; no compound was filed as active; the % refers to the polarisation; negative = inhibition;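 further: % of control where 0% means no effect; inhibitors lower the polarisation; unlabelled MLL peptide was the positive control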
gsp agonist = activates gsp, the McCune-Albright syndrome mutation | gsp mutant cells, cAMP HTRF, 30 min; control for the full effect not named in the record | Potency, µM (doses to about 76.9 µM), for inactives: at the highest dose activation (cAMP increase), usual class: activators | 340,000 compounds, 0.13% hits; active = well fitted activation curve with a large enough effect; inconclusive = small, poorly fitted or top-dose-only effect, or another doubt; inactive = no such curve, though single readings can be large or run the other way; cell line not stated here;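 further: phosphodiesterase inhibitor Ro 20-1724 added with compounds to block cAMP breakdown; potency means the concentration at half of the fitted maximal effect; nearly all actives have a fitted effect of over 60% in size; about a fifth of the inactives were tested at one dose only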
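Cells stably selected in G418 were plated at 2000/well, grown 16-24 hr, then given compounds in DMSO with the PDE inhibitor […] (300 uM solution added) for 30 min at 37C; cAMP was read by HTRF.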
ClpP mod = qHTS Assay for Activators of ClpP; Potency, µM (series often up to 57.5 µM), for the others: top-dose activity change, negative = active; AID 651965, 2013; ATP-dependent Clp protease proteolytic subunit (Bacillus subtilis (strain 168)), P80244; purified B. subtilis ClpP, FRET peptide cleavage, 20 min; 340,000 compounds, 1.9% hits; active = well fitted falling curve with a large enough effect; inconclusive = small, poorly fitted or top-dose-only effect; inactive = no such curve, though single readings can be large or run the other way; further: potency means the concentration at half of the fitted maximal effect; the source files actives as falling curves though it sought activators and does not explain the sign; nearly all actives have a fitted effect of over 65% in size; many hits overshoot -100%
Target sequence (P80244 whole entry, looked up): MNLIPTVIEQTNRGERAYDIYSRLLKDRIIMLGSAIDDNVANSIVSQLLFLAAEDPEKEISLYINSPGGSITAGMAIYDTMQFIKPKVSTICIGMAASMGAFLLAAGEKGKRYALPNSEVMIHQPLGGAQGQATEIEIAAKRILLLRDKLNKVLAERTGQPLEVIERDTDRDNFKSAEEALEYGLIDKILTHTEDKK
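ClpP 10 microg/mL final, pH 8 Tris/KCl buffer with BSA, glycerol, Tween-20; compound pinned in; FRET-FV substrate; RT 20 min; Ex320/Em430; ΔFRET vs ADEP 5.8 microM, DMSO, no enzyme.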
The depositor's hits bear a star; ? = inconclusive; . = not tested or not shown; & = joins results of further samples; [ ] = another dose, or the depositor's remark.

SMILES	gsp antagonist	TRPML1 agonist	TRPML1 blocker	Menin-MLL FL inh	gsp agonist	ClpP mod
CCN(CC)S(=O)(=O)c1ccc(OC)c(NC(=O)c2ccc(=O)[nH]c2)c1	15%	1.0	2	-0.3	20%[15.4 µM]	.
COc1ccc(-c2ccc(CCC(=O)O)n2NC(=O)c2cccs2)cc1	-1%	0.8	-25	2.5	-4%	-2.1%
Cc1cccc(N=C2NC(=O)/C(=C/c3cccs3)S2)c1	5%	0.7	-9	.	12%[15.4 µM]	-2.9%
CCOc1ccc(NC(=O)CN(C)C(=O)c2ccc(-c3ccc(C(C)=O)cc3)o2)cc1OCC	3%	1.6	-9	.	-14%	-8.6%
COc1cc2c(cc1OC)CN(C(C)C(=O)Nc1ccc(NC(C)=O)cc1)CC2 (centres undefined)	8%	-0.2	-15	-13	0%	-2.2%
CC(C)Cn1c(N)c(C(=O)COC(=O)[C@H](C)NC(=O)c2ccccc2Cl)c(=O)n(C)c1=O	-22%	-0.7	-7	.	-8%	0.3%
COc1ccc(CN=C2NC(=O)CC(C(=O)Nc3ccc(Cl)cc3)S2)cc1 (centres undefined)	-3%	-0.5	8	.	0%[15.4 µM]	-4.2%
CCOc1ccc(CN2CCNC(=O)C2CC(=O)NCCc2nc(C)c3c(n2)CCC3)cc1 (centres undefined)	3%	-0.7	-13	-13	?	-1.5%
COc1cc(SC)ccc1C(=O)OCC(=O)NCCC1=CCCCC1	5%	2.1	-5	.	4%	-3.1%
COc1cccc(CNCCO)c1OCc1ccccc1Cl	21%	-0.2	-4	2.1	20%	0.5%
COc1ccc(CNC(=O)N2CCN(c3ccc(F)cc3)CC2)cc1	-2%	-0.6	1	1.8	18%[15.4 µM]	-1.8%
Cc1cc(=O)n2nc(N3CCC(C(=O)NCc4ccc(Cl)cc4)CC3)sc2n1	-3%	0.8&-1.2	1&11	.	?	0.3%&0.8%
COc1ccccc1N1CC(C(=O)NCC2COc3ccccc3O2)CC1=O (centres undefined)	5%	3.0	1	.	0%	1.0%
CCc1nnc(SCc2ccc(OC)cc2)c2cc3sc(C)cc3n12	.	-0.7	4	.	.	-0.9%
COc1ccc(C)cc1-n1c(SCC(=O)N2CCOCC2)nc2ccccc2c1=O	.	-0.5	-2	.	-27%	-0.1%
O=C(Nc1cccnc1)c1ccc(COc2ccccc2Br)o1	-14%	3.2	-2	2.9	-72%[inhibitor]	0.6%
CCOc1ccccc1NC(=O)c1cccc(NC(=O)CC(c2ccccc2)c2ccccc2)c1	2%	3.1	6	3.9	12%	-24%
Cc1c(C(=O)Oc2cccc3cccnc23)oc2ccccc12	13%	-0.3	16	-9.8	7%[15.4 µM]	.
O=[N+]([O-])c1cc(C(F)(F)F)ccc1NN=C1CCCC1	-12%	-0.6	1	.	27%[15.4 µM]	32µM*
Cc1oc2cc(OC(=O)c3ccco3)ccc2c(=O)c1-c1nc2ccccc2n1C	6%	0.4	3	2.4	3%	34%
NC(=O)CC(NC(=O)Cc1ccc(Cl)cc1)c1ccc(NCCOc2ccccc2)c([N+](=O)[O-])c1 (centres undefined)	-2%	-0.6	6	0.3	.	1.5%
COc1ccccc1OCC(=O)N/N=C/C=C/c1ccc([N+](=O)[O-])o1	-5%	2.3	-13	?	-7%	1.9%
C=CCn1c(SCc2nc3scc(-c4ccccc4)c3c(=O)[nH]2)nnc1-c1ccccc1F	?	2.8	-4	3.6	18%	-2.9%
CC(Oc1ccc(S(=O)(=O)N2CCCC2)cc1[N+](=O)[O-])C(=O)N(C)c1ccccc1 (centres undefined)	-16%	-0.6	-8	.	0%	-17%
C=CCNC(=O)COC(=O)c1c2c(nc3ccccc13)CCC2	-7%	-0.7	-10	1.1	0%[15.4 µM]	.
CCO[C@H]1OC(C(=O)N2CCOCC2)=C[C@@H](c2ccccc2)[C@@H]1CCCO	7%	-0.6	19	3.7	.	1.7%
Cc1cc(C)nc(SCc2cc(=O)c(OC(=O)c3cc([N+](=O)[O-])ccc3Cl)co2)n1	-4%	-0.7	21	9.6	8%[15.4 µM]	-3.5%
O=C(CC1C(=O)NCCN1C/C=C/c1ccccc1)NCCc1cccnc1 (centres undefined)	7%	-0.1	-5	-2.8	21%[15.4 µM]	.
O=C(c1ccc2c(c1)OCO2)C1CCCN(C(=O)NCc2ccccc2)C1 (centres undefined)	-11%	-0.1	-14	-1.7	-3%	.
COC(=O)c1cccc(NC(=O)Cn2nnc3ccccc32)c1	11%	-0.6	-5	-0.2	4%	0.4%
COc1ccc(CCn2cc3c(c2-c2ccccc2Br)c(=O)n(C)c(=O)n3C)cc1OC	.	-0.5	33	.	.	-21%
COc1cc(O)c(C=Nc2ccccc2NS(=O)(=O)c2ccc(C)cc2)c(OC)c1	-9%	1.2	5	.	0%	-2.8%
Cc1[nH]n(-c2ccccc2)c(=O)c1N=Nc1ccccc1O	-8%	1.6	-15	9.1	8%[15.4 µM]	.
CCOC(=O)c1c(-c2ccc(C)cc2C)csc1NC(=O)CSc1nnnn1C	-5%	2.0	-1	-0.8	-1%	-4.5%
CC(C)N1C(=S)SC(C)(C)C1NO (centres undefined)	8%	1.3	25	-1.9	?	-1.3%
O=C(CSc1nc2ccccc2n1Cc1cccc(C(F)(F)F)c1)NCc1ccccc1	.	1.2	-14	.	.	2.6%
CC(C)(C)OC(=O)C[C@@H]1C/C=C\C[C@@H](CC(=O)N[C@H](CO)Cc2ccccc2)C(=O)NC[C@H](c2ccccc2)OC1=O	6%	-0.1	-4	.	.	2.0%
CC(O)CCc1ccc(O)cc1 (centres undefined)	5%	-0.4	14	-2.9	-16%	-2.3%
CCOC(=O)N1CCC(NC(=O)c2cnn3cccnc23)CC1	-4%[15.4 µM]	0.1	-6	3.0	?	-2.2%
O=C(CSc1nnc(Cc2ccccc2)o1)N1CCCC1	8%	.	.	0.2	-22%	-3.1%
CC(C(=O)O)n1c2ccccc2c2cnn(C)c(=O)c21 (centres undefined)	7%	0.6	21	-0.3	-7%	3.3%
CCCC(=O)Nc1nnc(/C=C/c2ccc(OC)cc2)s1	-2%	0.3	38	-3.1	-4%[15.4 µM]	.
COc1ccc(/C=N/N(C)c2cc(=O)n(C)c(=O)[nH]2)cc1OC	-1%	-0.3	1	-0.4	20%	.
CC(C)CC(NC(N)=O)C(=O)Nc1cccc([N+](=O)[O-])c1 (centres undefined)	7%	-0.3	-20	-3.9	5%[15.4 µM]	.
O=C(NC1CC(=O)N(c2ccc(Cl)cc2)C1)C1CCCC1 (centres undefined)	.	-0.1	-16	.	.	-1.5%
COc1ccc(CCNC(=O)C(=O)NCC2CCCN2S(=O)(=O)c2ccccc2)cc1OC (centres undefined)	-1%	-0.1	-8	.	6%[15.4 µM]	-5.7%
CCCCN(C(=O)c1cccc(-n2cnnn2)c1)c1c(N)n(CC(C)C)c(=O)[nH]c1=O	-4%	-0.7	1	.	23%	-2.6%
CC(=O)N1CCN(Cc2nc3cc(NC(=O)c4cccc(Br)c4)ccc3n2C)CC1	0%	0.2	-5	0.8	-9%[15.4 µM]	.

In the list so far, 4 have fluorine.
SMILES	gsp antagonist	TRPML1 agonist	TRPML1 blocker	Menin-MLL FL inh	gsp agonist	ClpP mod
COc1ccc(CNC(=O)N2CCN(c3ccc(F)cc3)CC2)cc1	-2%	-0.6	1	1.8	18%[15.4 µM]	-1.8%
O=[N+]([O-])c1cc(C(F)(F)F)ccc1NN=C1CCCC1	-12%	-0.6	1	.	27%[15.4 µM]	32µM*
C=CCn1c(SCc2nc3scc(-c4ccccc4)c3c(=O)[nH]2)nnc1-c1ccccc1F	?	2.8	-4	3.6	18%	-2.9%
O=C(CSc1nc2ccccc2n1Cc1cccc(C(F)(F)F)c1)NCc1ccccc1	.	1.2	-14	.	.	2.6%

The list goes on.
SMILES	gsp antagonist	TRPML1 agonist	TRPML1 blocker	Menin-MLL FL inh	gsp agonist	ClpP mod
CC(C)CC(NC(=O)C1CCC(C)CC1)C(=O)Nc1ccc2c(c1)OCCO2 (centres undefined)	8%	1.1	-10	5.3	0%	-3.3%
COc1ccc(CCCc2nnc(SCC(=O)Nc3cccc(C)c3)o2)cc1	-29%	3.5&2.2	5&7	-0.9	4%	-0.7%&0.5%
CCC(=O)NC(=S)Nc1ccc(NC(=O)c2ccc([N+](=O)[O-])cc2Cl)cc1	25%	1.1	-3	0.8	-10%	3.6%
COc1cccc(NC(=O)Nc2cccs2)c1	-4%	0.9	4	?	-9%	-0.7%
CN(C(=O)CC1C(=O)NCCN1CC1CCCCC1)C1CCOCC1 (centres undefined)	2%	0.0	-8	-3.1	27%	-26%
COc1ccc(-c2nc(CS(=O)CC(=O)NCc3ccc4c(c3)OCO4)c(C)o2)cc1 (centres undefined)	3%	-0.1	-5	0.0	-7%	-18%
C[C@@H]1CN([C@H](C)CO)C(=O)CCCn2nncc2CO[C@H]1CN(C)Cc1cccc(O)c1	.	-0.4	41	.	11%	-0.2%
CC(NCCOCCOc1ccccc1)c1ccccc1 (centres undefined)	7%	-0.7	0	3.1	-48%[inhibitor]	1.7%
O=C1CC(SC(=Nc2ccccc2)Nc2ccccc2)C(=O)N1c1cccc(Cl)c1 (centres undefined)	0%	1.2	-8	3.6	29%	-1.4%
Cc1ccc(NC(=S)c2ccccc2)cc1	13%	1.3	2	2.0	-2%	-1.9%
CCc1ccc(-c2cc(C)no2)cc1S(=O)(=O)N1CCN(c2ccccn2)CC1	-12%	-0.9	73	.	?	-12%
Cc1cc(C)nc(SCc2ccc(C(=O)N/N=C3\CC(C)CC(C)(C)C3)cc2)n1 (centres undefined)	-3%	-0.1	-20	0.4	11%[15.4 µM]	-2.2%
CCOc1ccccc1CN1C(=O)NC2(CCCCCC2)C1=O	11%	-0.6	7	.	0%[15.4 µM]	.
CN(CCc1ccccn1)C1CC(=O)N(c2ccc(Cl)cc2)C1=O (centres undefined)	-10%	-0.4	-16	2.9	-2%	-1.5%
CC(C)(C)c1ccc(OCCC(=O)OCC(=O)NC(=O)NC2CCCC2)cc1	1%	3.9	-3	.	-3%[15.4 µM]	.
Oc1ccc(/C=N/n2c(COc3ccccc3)n[nH]c2=S)cc1O	-10%	0.7	-14	0.4	14%[15.4 µM]	.
N#Cc1ccc(CSc2nnc(Nc3ccccc3)s2)cc1	15%	3.9	2	1.8	-1%	-1.2%
O=C(Nc1ccccc1)c1nc[nH]c1C(=O)NCc1ccccc1	-2%	2.2	6	.	?	0.6%
CCOC(=O)CSc1nc2c(sc3ccccc32)c(=O)n1Cc1ccc(C)cc1	.	-0.6	5	.	.	-4.2%
Cc1cccc(N2CCN(Cc3cc(=O)n4ccsc4n3)CC2)c1C	-11%	-0.2	14	2.4	19%	-2.7%
